High-throughput results (PubChem BioAssay)
Vaccinia mCherry: inhibitors of vaccinia virus infection (mCherry reporter signal); Vaccinia virus mCherry reporter infection, fluorescence; about a quarter of the inactives have no number; Potency, µM (top dose mostly 36.5 µM), inactives show at the highest dose activity change, negative = inhibition, hits mostly inhibitors; 310,000 tested, 0.63% active; AID 720579; active = well fitted inhibition curve with a large enough effect; inconclusive = small, poorly fitted or top-dose-only effect; inactive = no such curve, though single readings can be large or run the other way; tested in A549 cells; note: nearly all actives have a fitted effect of over 35% in size; inactives centre near -10
Vaccinia Venus: vaccinia inhibition (Venus reporter). Vaccinia virus Venus reporter expression, fluorescence. Potency, µM (top dose mostly 36.5 µM), for inactives: at the highest dose activity change, negative = inhibition, most hits filed as inhibitors. 330,000 tested, 0.46% active. AID 720580; active means well fitted inhibition curve with a large enough effect; inconclusive means small, poorly fitted or top-dose-only effect; inactive means no such curve, though single readings can be large or run the other way; tested in A549 cells; note: nearly all actives have a fitted effect of over 30% in size; inactives centre near -10
Numbers without * were called inactive; i = inactive; ? = inconclusive; / = no result given; & = joins results of further samples; [ ] = another dose, or the depositor's remark. % is set by controls: 0 for no effect and ±100 for the full control effect; potency is the fitted concentration of half-maximal effect.

Each structure is followed by: Vaccinia mCherry | Vaccinia Venus
1) COC(=O)CC(NS(=O)(=O)c1cccs1)c1cccc2ccccc12 (configuration not stated)
    -5% | -20%
2) CC(Oc1cccc(NC(=O)c2cccs2)c1)C(=O)c1ccccc1 (configuration not stated)
    -9% | -16%
3) Cc1cccc(N2CCN(C(=O)c3ccc(Cl)c(S(=O)(=O)NCc4ccco4)c3)CC2)c1C
    ? | ?
4) CN(C(=O)CN1CCN(c2cc(-c3ccc(OCc4ccccc4)cc3)ncn2)CC1)c1ccccc1
    7.9µM* | ?
5) Cc1nc2ccccc2c(=O)n1NC(=O)CCC(=O)O
    -13% | -4%
6) CN(C)C=NC(=O)c1ccc([N+](=O)[O-])c(CS(=O)(=O)c2ccc(Cl)cc2)c1
    / | -2%
7) COC(=O)C1=C(c2cccc(OCc3ccccc3)c2)C[C@@H]2CC[C@H]1N2C(=O)NCc1ccccc1
    -20% | ?
8) CC(=O)OCC(=O)Nc1ccc(Cl)cc1Cl
    / | -10%
9) CCCNC(=O)Cn1c(=O)n(CC2CCC(C(=O)NC)CC2)c(=O)c2sccc21 (configuration not stated)
    -14% | -11%
10) Cc1cc(N2CCN(C3CCCC3)CC2)n2c(nc3ccccc32)c1C#N
    -5% | 1%
11) O=C(O)c1ccc(NC(=O)c2cccc(N3C(=O)C4C5CCC(C5)C4C3=O)c2)cc1 (configuration not stated)
    -1% | -13%
12) Cc1cccc(NC(=O)C2CCCN2S(=O)(=O)c2ccc3nc(-c4ccccc4)[nH]c3c2)c1 (configuration not stated)
    -15% | -10%
13) Cc1ccc(NC(=S)N(CCN2CCCCC2)Cc2ccco2)cc1Cl
    -26% | -17%
14) CC(C)c1ccc(Nc2cc(C(=O)NCCCN(C)Cc3ccccc3)c3ccccc3n2)cc1
    ? | ?
15) Clc1ccccc1C1=CC(c2ccco2)n2ncnc2N1 (configuration not stated)
    -8% | 0%
16) O=C(O)c1ccc(NC(=O)c2cccs2)cc1
    i | 3%
17) O=C(NCc1ccccc1)C1CCCN(S(=O)(=O)c2cccc3nsnc23)C1 (configuration not stated)
    -7% | 5%
18) COc1cccc(-n2c(SCC(=O)NCCc3ccccc3)nnc2-c2ccoc2C)c1
    -13% | -11%
19) COc1ccc(C(=O)NCCC2=CCCCC2)cc1
    -12% | -17%
20) CC(=NCCC(c1ccccc1)c1ccccc1)c1c(O)n(C)c(=O)n(C)c1=O
    -11% | -20%
21) Cc1nnc2n1NC(c1ccc(Cl)cc1)C(C(=O)N(C)C1CCCCC1)S2 (configuration not stated)
    -11% | -6%
22) COC(=O)c1c(NC(=O)Cc2cccs2)sc(C(=O)N2CCCCC2)c1C
    -20% | -11%
23) CCOCCCn1c(=NC(C)=O)c(C(=O)OCC)cc2c(=O)n3ccccc3nc21
    -25% | -6%
24) CCCCn1c(N)c(N(CC)C(=O)c2cc(S(=O)(=O)N3CCCCCC3)ccc2OC)c(=O)[nH]c1=O
    -10% | -16%
25) COc1ccc(CN2C(=O)C(CC(C)C)Nc3ncnc(N4CCN(c5ccccn5)CC4)c32)cc1 (configuration not stated)
    -16% | ?
26) Brc1ccc(-c2csc(-c3c[nH]c4ccccc34)n2)cc1
    / | -29%
27) O=C(COC(=O)CN1C(=O)C2CCCCC2C1=O)Nc1cc(S(=O)(=O)N2CCOCC2)ccc1Cl (configuration not stated)
    -16% | -11%
28) CCN(CC)S(=O)(=O)c1ccc(N(C)Cc2ccc(C(F)(F)F)cc2)nc1
    -6% | ?
29) O=C(O)C1C=CCC(C(=O)O)C1 (configuration not stated)
    i | -2%
30) Cc1ccc(N(C(=O)c2cnccn2)C(C(=O)NC2CCCCC2)c2ccc(O)cc2)cc1 (configuration not stated)
    -3% | -1%
31) O=C(CCOc1ccccc1)Nc1ccc(Br)cc1
    -10% | -7%
32) Cc1cccc(NC(=O)c2nc[nH]c2C(=O)N[C@H](C)CO)c1
    i | -25%
33) COc1ccccc1/C=N/N1C(=O)C2C3C=CC(CC3)C2C1=O (configuration not stated)
    -13% | -23%
34) O=C(O)/C(=C\c1cccs1)Sc1nnc(-c2ccc(F)cc2)o1
    -20% | -10%
35) CC(=O)Nc1cccc(-c2csc(NCc3ccco3)n2)c1
    -25% | -21%
36) Cc1nnc(NC(=O)Cn2nc(C)c3ccccc3c2=O)s1
    -28% | -5%
37) CCc1ccc(NC(=O)c2sc(-n3nc(C)c(Cc4ccc5c(c4)OCO5)c3C)nc2C)cc1
    -15% | -9%
38) CC(C)c1ccc(NC(=S)Nc2ccc(OC(F)(F)F)cc2)cc1
    -2% | -12%
39) CC(C)C(=O)Nc1nnc(SCC(=O)NCc2ccc3c(c2)OCO3)s1
    -8% | -4%
40) CCCCC[C@H]1CN(Cc2ccccc2)C(=O)[C@@H]1CC(=O)NCc1ccccc1
    -11%&-21% | ?
41) Cc1onc(-c2c(F)cccc2Cl)c1C(=O)OCC(=O)Nc1cccc(S(=O)(=O)N(C)C)c1
    ? | ?
42) CCCn1c(N)c(N(CCOC)C(=O)c2cc3c(s2)CCC(CC)C3)c(=O)[nH]c1=O (configuration not stated)
    -15% | -14%
43) CC(=O)NC(Cc1ccccc1)C(=O)OCC(=O)c1ccc(Cl)cc1 (configuration not stated)
    -13% | -4%
44) COc1nnc(-c2ccc(N3CCCCC3)c(NC(=O)c3ccc(Cl)cc3)c2)c2ccccc12
    ? | ?
45) CCCOc1ccc(F)cc1-c1cc(C(=O)NCc2ccc(C(F)(F)F)cc2)[nH]n1
    -15% | 5%

Exported in markdown: part of the list above
| item | SMILES | Vaccinia mCherry | Vaccinia Venus |
| --- | --- | --- | --- |
| 36 | Cc1nnc(NC(=O)Cn2nc(C)c3ccccc3c2=O)s1 | -28% | -5% |
| 32 | Cc1cccc(NC(=O)c2nc[nH]c2C(=O)N[C@H](C)CO)c1 | i | -25% |
| 35 | CC(=O)Nc1cccc(-c2csc(NCc3ccco3)n2)c1 | -25% | -21% |

Additional entries follow.
Each structure is followed by: Vaccinia mCherry | Vaccinia Venus
46) CCn1c(SCC(=O)Nc2nccc(C)n2)nc2ccccc21
    -14% | 4%
47) COc1cc(/C=N/NC(=S)NCc2ccccc2)ccc1OCC#N
    ? | -23%
48) Cc1nc(Nc2ccccc2)sc1-c1ccccc1
    -16% | ?
49) CC(=O)c1ccc(NC(=O)c2ccc(C)c(S(=O)(=O)N3CCOCC3)c2)cc1
    -14% | -15%
50) O=C(NCC1CCCO1)c1ccccn1 (configuration not stated)
    / | -11%
51) CC(=O)C1(O)CCC2C3CCC4CC(O)CCC4(C)C3C(=O)CC21C (configuration not stated)
    -16% | -16%
52) Cc1cc(NC(=O)C(C)Oc2ccc(Cl)cc2Cl)no1 (configuration not stated)
    -19% | -10%
53) Cc1ccccc1Nc1nnc(SCC(=O)NCc2cccs2)s1
    -11% | -4%
54) O=C(COC(=O)C12CC3CC(CC(Br)(C3)C1)C2)Nc1cccnc1Cl
    i | -22%
55) COc1ccc(N(CC(=O)NCc2ccco2)C(=O)CCC(=O)Nc2ccccn2)cc1
    -6% | -8%
56) O=C(CN1C2CCCC1CC(NC(=O)C1CCCCC1)C2)Nc1ccccc1 (configuration not stated)
    -13% | -8%
57) COc1cc(OC)c(OC)cc1/C=C/c1nc2cc3ccccc3cc2c(=O)n1-c1ccccc1Br
    -11% | -7%
58) COc1cc(/C=N/NC(=O)c2cc(C34CC5CC(CC(C5)C3)C4)[nH]n2)ccc1O
    -26% | ?
59) O=C(C1CCCO1)N1CCN(C(=S)Nc2cccc(Cl)c2)CC1 (configuration not stated)
    i | -3%
60) Cc1cccc(-n2c(C)nc3cc(C(=O)NCCN4CCOCC4)ccc32)c1
    i | -3%
61) COc1ccc(C(=O)CSc2nnn(-c3cccc(NC(C)=O)c3)n2)cc1
    -12% | -8%
62) CN(C)S(=O)(=O)c1cccc(NC(=O)CCc2nc3cc(S(=O)(=O)N4CCOCC4)ccc3n2C)c1
    -5% | -2%
63) Cc1cc(=O)n2c(C)n[nH]c2n1
    -5% | -2%
64) CCOC(=O)c1cnc2c(C)c(Cl)ccc2c1Nc1ccc(N2CCOCC2)cc1
    -16% | -16%
65) Cc1ccc(-n2c(SCC(=O)Nc3ccc4c(c3)OCCO4)nc3c([nH]c4ccccc43)c2=O)cc1
    -13% | -14%
66) CC(C)COc1ccc(C(=O)Nc2cccc(-c3nc4ccccc4[nH]3)c2)cc1
    -18% | -21%
67) OCCC1CN(C/C(Cl)=C/c2ccccc2)CCN1C1CCCC1 (configuration not stated)
    -11% | -15%
68) CC(Sc1ccc(Cl)cc1)C(=O)NNC(=O)c1csc(N2CCOCC2)n1 (configuration not stated)
    -25% | -19%
69) Cc1cc(C2C(=O)CC(=O)CC2c2ccccc2)on1 (configuration not stated)
    -7% | 5%
70) COc1cccc(C(O)c2ncc(-c3cccc(C(F)(F)F)c3)[nH]2)c1 (configuration not stated)
    -16% | ?
71) COc1ccccc1CC(=O)Nc1ccc2nc(Nc3cccc(Cl)c3)cc(C)c2c1
    -23% | -28%
72) CC1(C(=O)Nc2cccc(NS(C)(=O)=O)c2)Cc2c(-c3ccc(C(N)=O)cc3)ccnc2O1 (configuration not stated)
    -2% | -1%
73) COc1ccc(NC(=O)CC2C(=O)N(c3ccccc3)C(=O)N2CCc2cccs2)cc1 (configuration not stated)
    i | -9%
74) CCc1ccccc1-n1c(N)c(C(=O)OC)c2nc3ccccc3nc21
    4% | 2%
75) Clc1ccc(-c2noc3ncnc(NCCc4ccccc4)c23)cc1
    -1% | 2%
76) COc1ccc(CNC(=O)COc2ccc(S(=O)(=O)N3CCOCC3)cc2C)cc1
    -4% | -10%
77) S=C(Nc1ccc2c(c1)OCO2)Nc1ccccc1Cl
    ? | -8%
78) CN1CCN(c2oc(-c3ccc(COc4ccc(Cl)cc4)o3)nc2C#N)CC1
    -6% | 0%
79) COc1cccc(-n2c(=O)c3sccc3n(CC(=O)NC3CCCC3)c2=O)c1
    -12% | 4%
80) CCCc1nc2c3ccccc3ccn2c1Cc1cccc(F)c1
    10% | -6%
81) O=C(CSCc1cnn(-c2ccccc2)c1-n1cccc1)NCc1ccccc1F
    -17% | -20%
82) O=C1C(Cl)=C(Nc2ccccc2O)C(=O)N1CCc1ccccc1
    -13% | -21%
83) CN(C)CCOC(=O)C12CC3CC(CC(C3)C1)C2
    / | -10%
84) COc1ccccc1N1CCN(C(=O)Cn2c(=O)nc(-c3ccccc3)c3ccccc32)CC1
    -23% | -28%
85) CC(=O)N1Cc2ccccc2C(C)CC12CCCC2 (configuration not stated)
    i | -12%
86) COC1(OC)C(/C=C/c2ccc(C)cc2)C(C#N)(C#N)C1(OC)OC (configuration not stated)
    14µM* | 28µM*
87) CC1Cc2nc(SCC(=O)Nc3nccs3)n(Cc3ccccc3)c(=O)c2S1 (configuration not stated)
    i | 1%
88) Cc1ccc2[nH]cc(C(O)c3c[nH]c4ccc(C)cc34)c2c1
    -13% | -14%
89) O=C1/C(=C\c2cccs2)N=C(c2cccs2)N1Nc1ccccc1
    -4% | -15%
90) O=C(Cn1c(=O)c2ccccc2n(CC(=O)Nc2ccc(F)cc2F)c1=O)NCCc1ccccc1
    -14% | -13%
91) CCOc1ccc2c(=O)c(-c3ccc4c(c3)OCCCO4)c(C)oc2c1
    -12% | -3%
92) COc1cc2c(cc1OC)C1(CCCC1)CNC2C (configuration not stated)
    -9% | -15%
93) O=C(Nc1nc(=O)c2ccccc2s1)c1ccc(Cl)cc1
    -12% | -8%
94) CCOc1ccc(OCCCCOc2ccccc2C(C)=O)cc1
    -14% | -9%
95) COc1cccc(NC(=S)N2CCC(NC(=O)C3CCCCC3)CC2)c1
    -17% | -13%
96) COc1cccc(-c2cc(C(=O)NCc3ccccc3)[nH]n2)c1
    -13% | -14%
97) COc1ccc(C)cc1NC(=O)CSc1nnc(CC(=O)Nc2ccccc2F)n1C
    -3% | -10%
98) COC(=O)C1=C(c2cccc(OCc3ccccc3)c2)C[C@@H]2CC[C@H]1N2C(=O)NCCOc1ccc(OC)cc1
    -27% | ?
99) Cc1oc(-c2ccccc2NS(C)(=O)=O)nc1CN(C)Cc1ccc(Cl)cc1
    -9% | -1%
100) COc1cc(N/C=C2\CC(=O)NC(C)=C2C#N)cc(OC)c1OC
    -16% | 2%
101) CCCn1c(=O)n(C)c(=O)c2c(SCC(=O)NCc3ccco3)nc(C3CC3)nc21
    / | -7%
102) COc1cccc(CNC(=O)C(=O)NCCC2CCCCN2S(=O)(=O)c2ccc(C)cc2)c1 (configuration not stated)
    ? | ?
103) CCCCc1c(O)nc2ccccn2c1=O
    -9% | -4%
104) Cc1ccc(S(=O)(=O)c2c(Nc3ccc(C)c(C)c3)sc(C(=O)c3ccc4c(c3)OCO4)c2N)cc1
    i | -17%
105) O=C(Nc1cc(SCCO)cc([N+](=O)[O-])c1)c1ccc(Br)o1
    ? | -14%

Other structures follow.
Each structure is followed by: Vaccinia mCherry | Vaccinia Venus
106) Cc1cccc(-n2c(SCC(=O)N(C)C3CCS(=O)(=O)C3)nc3ccccc3c2=O)c1C (configuration not stated)
    -4% | -16%
107) C(=C\c1ccccc1)/CN1CCN(C(CCc2ccccc2)c2nnnn2C2CCCC2)CC1 (configuration not stated)
    7% | -12%
108) CCOC(=O)C1(CCc2ccccc2)CCN(C2CCSCC2)CC1
    -3% | -10%
109) CCOC(=O)C1(C)CCCN(C(=O)c2c(F)ccc(C)c2F)C1 (configuration not stated)
    36%[activator] | -10%

One compound at a time, from the list above:
Profile of C(=C\c1ccccc1)/CN1CCN(C(CCc2ccccc2)c2nnnn2C2CCCC2)CC1 (configuration not stated) : Vaccinia mCherry = 7%; Vaccinia Venus = -12%
Profile of Cc1cccc(-n2c(SCC(=O)N(C)C3CCS(=O)(=O)C3)nc3ccccc3c2=O)c1C (configuration not stated) : Vaccinia mCherry = -4%; Vaccinia Venus = -16%
